2A firefly: lowers the firefly signal of an FMDV 2A StopGo reporter | HEK cells with a luciferase reporter of 2A StopGo recoding | Potency, µM (top dose mostly 57.5 µM), for inactives: at the top dose signal change, negative = less light | hit rate 0.23% among 120,000; active = well fitted falling curve with a large enough effect; inconclusive = small, poorly fitted or top-dose-only effect; inactive = no such curve, though single readings can be large or run the other way; further: nearly all actives have a fitted effect of over 60% in size; overnight with compound
StopGo RLuc: FMDV 2A StopGo reporter, Renilla signal. Potency, µM (doses to about 57.5 µM), for the others: top-dose signal change, negative = less light. hit rate 0.32% among 120,000. HEK cells with a luciferase reporter of 2A StopGo recoding; active means well fitted falling curve with a large enough effect; inconclusive means small, poorly fitted or top-dose-only effect; inactive means no such curve, though single readings can be large or run the other way; further: nearly all actives have a fitted effect of over 55% in size; overnight with compound
Starred values were filed as active, the others as inactive; ? = inconclusive; [ ] = dose if it differs, or a comment. On the % scale 0 is the no-effect control and ±100 the full control effect; potency means the concentration at half of the fitted maximal effect. Not all compounds are listed; rates above refer to the full screens.

1) COCCCn1c(C)cc(C(=O)CSc2ncnc3ccccc23)c1C
2) O=C(CSc1nnc2ccccn12)c1ccc(Cl)cc1Cl
3) N#Cc1ccc(-c2ccc(OC(=O)CCC(=O)c3cccs3)cc2)cc1
4) CC(C)CC(=O)Nc1ccc(C(=O)OCc2cc(=O)n3nc(C4CCCCC4)sc3n2)cc1
5) COc1ccc(NC(=O)Cn2ccn(-c3ccc(OC)cc3)c2=O)cc1
6) CCCCCCCCCCC(CO)CCCCCCCC (centres undefined)
7) O=C(Nc1ccc(Cl)cc1)c1cc2c(Cl)nc3ccccc3c2s1
8) CCOC(=O)c1ccc(CN(Cc2ccc(Cl)cc2Cl)S(=O)(=O)c2ccc(F)c(C)c2)cc1
9) CC12CCC(=O)C=C1CCC1C2CCC2(C)C1CC[C@]2(C)O (some centres undefined)
10) O=C(Cn1nc(-c2ccccc2)c2ccccc2c1=O)Nc1cccc(C(F)(F)F)c1
screen / no.	1	2	3	4	5	6	7	8	9	10
2A firefly	?	163%[activator]	84%[activator]	-15%	2%	-1%[11.5 µM]	-20%	8%	11%	-9%
StopGo RLuc	1.4µM*	2%	22%	-7%	9%	-10%	-15%	9%	4%	-10%

11) COC(=O)Nc1c(C)cccc1C(C)C
12) C/C(=N/Nc1cc(C)c2ccccc2n1)c1cccs1
13) Cc1cccc(Cn2c(=O)n(CCCC(=O)NCc3ccccc3Cl)c(=O)c3ccccc32)c1
14) Cc1ccccc1Cn1cnc(NC(=O)c2cc(S(=O)(=O)N3CCCC3)c(Cl)cc2Cl)n1
15) Cc1ccc(Cn2nc(C)c3cc(C(=O)N4CCN(C(=O)CN5CCOCC5)CC4)sc32)cc1
16) O=C(Nc1ccc2oc(-c3cccc(F)c3)nc2c1)c1ccc2ccccc2c1
17) Cc1cc2oc(C(=O)NCC(c3cccs3)N3CCOCC3)cc(=O)c2cc1Cl (centres undefined)
18) Clc1ccc(-c2csc(=Nc3ccccc3)n2Cc2ccc3c(c2)OCO3)cc1
19) N#Cc1nc(-c2ccco2)oc1NCc1ccc(F)cc1
20) CCOc1ccc(CCNC(=O)c2ccc(Nc3nc4ccccc4n4nnnc34)cc2)cc1OCC
screen / no.	11	12	13	14	15	16	17	18	19	20
2A firefly	-16%	55%[activator]	23%	-6%	-3%	-2%	-6%	63%[activator]	86%[activator]	17%
StopGo RLuc	1%	-4%	17%	-12%	6%	-4%	-12%	0%	135%[activator]	-22%

Copied from the list:
StopGo RLuc, entry 13 reads 17%
StopGo RLuc, entry 5 reads 9%
StopGo RLuc, entry 15 reads 6%
StopGo RLuc, entry 3 reads 22%
2A firefly, entry 8 reads 8%
StopGo RLuc, entry 6 reads -10%

Further results.
21) CC(=O)Nc1ccc(NC(=O)CC2C(=O)N(C3CCCCC3)c3nc4ccccc4n32)cc1 (centres undefined)
22) O=C(NC12CC3CC(CC(C3)C1)C2)c1ccc2c(c1)CCC2
23) CCN(CC)C(=O)C1CCCN(c2ncnc3c2c(-c2ccccc2)cn3-c2cccc(C)c2)C1 (centres undefined)
24) COc1ccc(C2CC(=O)c3c([nH]c(C(=O)OCCOc4ccccc4)c3C)C2)cc1OC (centres undefined)
25) CS(=O)(=O)N1CCC(Nc2nc3ccccc3o2)CC1
26) O=C(NC(O)C(=O)c1ccc(F)cc1)c1ccccc1 (centres undefined)
27) CCSc1ncc(Cl)c(C(=O)N(Cc2ccccc2)Cc2ccco2)n1
28) Cc1cc(C)cc(NC(=O)Cn2c(=O)n(CC(=O)NCCc3ccccc3)c(=O)c3ccccc32)c1
29) CC(OC(=O)c1ccc2c(c1)NC(=O)CS2)C(=O)NC(C)(C)C (centres undefined)
30) Cc1ccc(CNC(=O)c2cccc(-c3cnc4ccccc4c3)c2)cc1
screen / no.	21	22	23	24	25	26	27	28	29	30
2A firefly	2%	50%[activator]	-30%	-23%	0%	0%	?	-10%	11%	0%
StopGo RLuc	-2%	0%[1.06 µM]	-18%	?	-6%	2%	?	-9%	16%	20%

31) O=C(CSc1nc2ccc(NC(=O)c3ccc(F)cc3)cc2s1)NC1CCCCC1
32) O=C(O)C12CC3CC(C1)CC([N+](=O)[O-])(C3)C2
33) CCOc1ccc(-n2nc3ccc(NC(=O)Cc4ccccc4)cc3n2)cc1
34) Cc1cccn2c(=O)c(-c3nnn[nH]3)cnc12
35) Cc1nc(NC(=O)C(C)(C)C)ccc1I
36) COc1ccc(OC)c(-n2nnc(-c3nc(-c4cc(OC)c(OC)c(OC)c4)no3)c2C)c1
37) COc1ccc(/C=C/c2nc(C#N)c(N3CCN(C(C)=O)CC3)o2)cc1
38) COc1ccc(CCNC(=O)CN(c2ccccc2)S(=O)(=O)N(C)C)cc1
39) CCN(CC)CCNC(=O)CS(=O)(=O)Cc1nc(-c2ccccc2C)oc1C
40) O=C(O)CC1(CC(=O)N2CCC(Cc3ccccc3)CC2)CCCC1
screen / no.	31	32	33	34	35	36	37	38	39	40
2A firefly	14%	1%	?	-4%[5.23 µM]	120%[activator]	0%	14%	-7%	2%	15%
StopGo RLuc	-17%	11%	?	-6%[23.8 µM]	16%	19%	15%	2%	-4%	6%

41) CSc1ccc(C=Nc2cccc(Cl)c2C)cc1
42) Cc1ccc(NC(=O)Cn2nnc(C(=O)NCc3cccs3)c2N)cc1Cl
43) Cc1coc2cc3o/c(=N/O)c4c(c3cc12)CCCC4
44) CC(C)N(C(=O)Cn1cnc2c1c(=O)n(C)c(=O)n2C)c1ccccc1
45) O=C(CSc1ncc2c(n1)-c1cc(Cl)ccc1N(Cc1ccccc1)S2(=O)=O)NCc1ccccc1
46) Brc1cc2c(cc1CSc1ccccn1)OCCO2
47) CCCn1c(SCc2nc(-c3ccccc3OCC)no2)nnc1-c1ccc(Cl)cc1
48) CCCC(=O)Nc1ccc2oc(-c3ccc(O)c(Br)c3)nc2c1
49) Cc1c(CCC(C)C)c(=O)oc2cc(OCCC(C)C)ccc12
50) NS(=O)(=O)c1ccc(NC(=O)c2csnn2)cc1
screen / no.	41	42	43	44	45	46	47	48	49	50
2A firefly	12%	-20%	18%	24%	-15%	102%[activator]	-13%	39%[activator]	24%	0%
StopGo RLuc	-4%	-14%	-1%	3%	1%	-6%[1.06 µM]	19%	-3%	4%	-10%

Gathered by group, the entries above containing a COOH group (two)
32) O=C(O)C12CC3CC(C1)CC([N+](=O)[O-])(C3)C2
40) O=C(O)CC1(CC(=O)N2CCC(Cc3ccccc3)CC2)CCCC1
screen / no.	32	40
2A firefly	1%	15%
StopGo RLuc	11%	6%

Part of the list above, with each value named.
#45 O=C(CSc1ncc2c(n1)-c1cc(Cl)ccc1N(Cc1ccccc1)S2(=O)=O)NCc1ccccc1
- 2A firefly: -15%
- StopGo RLuc: 1%

#46 Brc1cc2c(cc1CSc1ccccn1)OCCO2
- 2A firefly: 102%[activator]
- StopGo RLuc: -6%[1.06 µM]

Next compounds follow:
51) CCOC(=O)c1nc(NCc2ccc(Cl)cc2)c2c(C)noc2n1
52) CCOc1ccc(CN2CCN(c3ncnc4scc(-c5ccccc5)c34)CC2)cc1
53) CN(CC(=O)NCc1ccc(Cl)cc1)S(=O)(=O)c1ccc2[nH]c3c(c2c1)CCCC3
54) COc1ccccc1N1C(=O)c2ccccc2NC1c1cn(C)c(=O)n(C)c1=O (centres undefined)
55) O=[N+]([O-])c1ccccc1/C=C/C=N/Nc1ccc(S(=O)(=O)Nc2ccccc2)cc1[N+](=O)[O-]
56) O=c1oc2ccccc2c(NC2CCCC2)c1NS(=O)(=O)c1ccc(F)c(F)c1
57) Cc1ccc2c(=O)cc(C(=O)NCC(c3cccs3)N3CCCCCC3)oc2c1 (centres undefined)
58) Cc1ccc(OCc2nc(-c3ccc(C(=O)N4CCN(c5cc(Cl)ccc5C)CC4)cc3)oc2C)cc1
59) [O-][n+]1c2ccccc2[n+]([O-])c2cc(O)ccc21
60) CCOc1ccc(-c2nonc2NC(=O)c2ccc(C)cc2)cc1OCC
screen / no.	51	52	53	54	55	56	57	58	59	60
2A firefly	-14%	-1%	-7%	0%	18%	-5%	1%	-17%	0%	-6%
StopGo RLuc	-9%	0%	93%[activator]	-8%	213%[activator]	21%	-6%	0%	-8%	-12%

61) CC(C)c1ccc(-c2csc(Nc3ccc(S(N)(=O)=O)cc3)n2)cc1
62) CC(=O)c1ccc(NC(=O)c2nc(-c3ccccc3)n(-c3ccccc3)n2)cc1
63) Cn1cnc2c1c(=O)n(CC(=O)Nc1ccc(S(=O)(=O)N3CCCCCC3)cc1)c(=O)n2C
64) Cc1cc(C)cc(NC(=O)CCS(=O)(=O)c2cccc3nsnc23)c1
65) Cn1c(=O)c2c(ncn2Cc2ccc(Cl)c(Cl)c2)n(C)c1=O
66) Cc1ccc2c(c1)CCCN2C(=O)c1cnc2c(cnn2C(C)C)c1
67) CCCOc1ccc(/C=C/C(=O)Nc2sc(C)c(C)c2C(=O)OCC)cc1OC
68) Cn1c(=O)c2c(ncn2Cc2nc(-c3cccc(Cl)c3)no2)n(C)c1=O
69) O=C(Cn1ccc2ccc(Cl)cc21)Nc1ccc2c(c1)OCCO2
70) COc1ccc(OCC(=O)Nc2nc(-c3ccc(Br)cc3)ns2)cc1
screen / no.	61	62	63	64	65	66	67	68	69	70
2A firefly	-32%	-15%	8%	-9%	-28%	13%	0%	4%	213%[activator]	84%[activator]
StopGo RLuc	?	8%	36%[activator]	-3%	?	11%	-7%	3%	41%[activator]	6%

A different layout for some results above.
Each structure is followed by: 2A firefly	StopGo RLuc
(1) COCCCn1c(C)cc(C(=O)CSc2ncnc3ccccc23)c1C
 : ?	1.4µM*
(2) O=C(CSc1nnc2ccccn12)c1ccc(Cl)cc1Cl
 : 163%[activator]	2%
(3) N#Cc1ccc(-c2ccc(OC(=O)CCC(=O)c3cccs3)cc2)cc1
 : 84%[activator]	22%
(4) CC(C)CC(=O)Nc1ccc(C(=O)OCc2cc(=O)n3nc(C4CCCCC4)sc3n2)cc1
 : -15%	-7%

Other structures:
71) CCN(C(=O)c1ccco1)c1nc(-c2ccc(C)cc2)cs1
72) COc1ccccc1N1CCN(C(=O)COCC(=O)NCCc2ccccc2)CC1
73) O=C(Cc1cnc(-c2ccccc2F)s1)Nc1nccs1
74) COC(=O)c1ccc(COC(=O)c2c3c(nc4ccccc24)CCCC3)o1
75) O=C(CCC(=O)N1CC=C(c2c[nH]c3ncccc23)CC1)c1ccc(F)cc1
76) COc1cccc(CNS(=O)(=O)c2ccc(-c3ccc(=O)[nH]n3)o2)c1
77) Cc1ccc(CCNC(=O)CN2C(=O)COc3ccc(S(=O)(=O)N4CCCCC4)cc32)cc1
78) CC(C)(C)C(=O)OCC1CCC[N+]2(C)CCCCC12 (centres undefined)
79) COc1ccc(Cl)cc1C(=O)NCC(c1ccc(N(C)C)cc1)N1CCOCC1 (centres undefined)
80) CC(C)Nc1nnc(SCc2nc(-c3ccccc3Cl)no2)s1
screen / no.	71	72	73	74	75	76	77	78	79	80
2A firefly	124%[activator]	-5%	17%	-8%	?	-8%	13%	-9%	-1%	0%
StopGo RLuc	-6%	-11%	-2%	13%	?	-1%	20%	-18%	-4%	11%

81) CCCCCCOc1ccc(NC(C)=O)cc1
82) CCc1ccc(-n2c(SCc3cccc(F)c3)nc3[nH]ncc3c2=O)cc1
83) Cc1ccc(-c2nc3scc(CCNS(=O)(=O)c4ccc(F)c(C)c4)n3n2)cc1
84) Nc1nc(SCC(=O)NCc2ccccc2Cl)n[nH]1
85) Cc1[nH]c2ccccc2c1C(=O)Cn1cc(S(=O)(=O)N2CCCC2)ccc1=O
86) CC(C)c1ccc(NC(=O)CN2C(=O)COc3ccc(S(=O)(=O)N4CCOCC4)cc32)cc1
87) CCOc1ccc(CCNC(=O)c2c(C)oc3ncn(CC(C)C)c(=O)c23)cc1OCC
88) COc1cccc(CNC(=O)c2ccc3c(c2)c(C)c(C)n3Cc2ccccc2)c1
89) CCN(CC)CCNC(=O)C1CCN(c2cc(C)nc3c(-c4ccc(Cl)cc4)c(C)nn23)CC1
90) COc1cccc(-n2cnnc2SCc2csc(CC(=O)Nc3ccc(C)cc3)n2)c1
screen / no.	81	82	83	84	85	86	87	88	89	90
2A firefly	173%[activator]	-24%	-12%	0%	-9%	-9%	-4%	-18%	-11%	68%[activator]
StopGo RLuc	-1%	-12%	161%[activator]	-6%	-2%	22%	25%	-6%	-15%	25%
